GIV-Gai inh: inhibitors of GIV peptide binding to Galpha-i3, primary screen, biochemical, fluorescence polarization, FITC-GIV GBA peptide, rat Galphai3. Guanine nucleotide-binding protein G(i) subunit alpha-3 (Rattus norvegicus), P08753. 90 min; stronger effect = lower value; scaled: aluminum fluoride 0%, vehicle 100%. percent of control (FP), % (test concentration not listed). 0.42% of 210,000 active;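 active means replicate mean at 85% of control or lower, very high polarization wells dropped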;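 further: wells of about 15 µL received 100 nL stock; the first replicate is given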
Target sequence (P08753 whole entry, looked up): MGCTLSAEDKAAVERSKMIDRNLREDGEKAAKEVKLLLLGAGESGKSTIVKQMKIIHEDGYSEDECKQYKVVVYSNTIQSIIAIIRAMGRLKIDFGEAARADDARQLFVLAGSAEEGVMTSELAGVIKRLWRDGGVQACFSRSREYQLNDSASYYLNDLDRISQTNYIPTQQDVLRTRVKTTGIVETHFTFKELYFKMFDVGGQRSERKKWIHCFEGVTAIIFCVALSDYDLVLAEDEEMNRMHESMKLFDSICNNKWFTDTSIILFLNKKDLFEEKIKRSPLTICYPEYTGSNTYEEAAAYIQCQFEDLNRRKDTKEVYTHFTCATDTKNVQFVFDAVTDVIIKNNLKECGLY
HCMV NEC inh: inhibitors of HCMV UL50-UL53 interaction, biochemical, HTRF. normalized percent inhibition. 0.15% of 190,000 active. HCMV UL50-UL53 nuclear egress complex (human cytomegalovirus). inhibition, % (concentration not given with the values);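 active means both replicates at 50% or more, plus weaker picks with an unusually low signal ratio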;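 further: stock transfer was 100 nL into about 20 µL; 0% = negative control wells and 100% = wells with untagged competitor protein; inactives centre near -12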
Sa growth 42C: S. aureus growth inhibition at 42 and 30 °C, primary screen, LtaS inhibitor project, RN4220, two temperatures | OD600, 20 h, 42 °C; stronger effect = lower value | relative growth, % (concentration not given with the values) | 0.53% of 170,000 active;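 active means growth at 42 °C up to 50% and 20 or more points under that at 30 °C, or under 10% at both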;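 further: 300 nL library stock went into each well; scaled to the means of positive and negative controls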
Sa growth 42C second temp: second read-out of Sa growth 42C, no call of its own (marks repeat the call); relative growth, %; measured here: growth at 30 °C;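 optical density after 20 h as mean of two plates; 100% = untreated growth and lower means inhibition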
Active calls of the source: *; . = not tested or not shown; & = joins results of further samples.

SMILES	GIV-Gai inh	HCMV NEC inh	Sa growth 42C	Sa growth 42C second temp
O=C(COc1ccc2cc(Br)ccc2c1)NC(=O)NCc1ccco1	.	1.6	100.3	97.9
COc1ccc(-c2noc(CN(C(=O)c3ccc(C)cc3C)C(C)C)n2)cc1	95.1	-28.4	105.5	86.1
CCn1c(=O)c2sccc2n2c(CCCC(=O)N3CCN(c4cc(Cl)ccc4C)CC3)nnc12	104.9	.	108.8	87.4
O=S(=O)(Cc1nn[nH]n1)c1ccccc1	104.1	.	104.7	88.2
CCC(CC)=NNC(=O)c1cc(-c2ccccc2)n[nH]1	.	-8.6	82.8	88.3
O=C1c2ccccc2NC(c2ccc3c(c2)OCCO3)N1CCc1ccccc1 (stereo not drawn)	.	-19.2	83.9	79.4
CCc1cnc2c(c1SCCC(C)C)c(=O)n(C)c(=O)n2C	103.3&99.3	.	123.9	98.1
CCOC(=O)c1cc(-c2ccc(C)cc2)nn1Cc1ccccc1	106.5	4.4	110.7	92.4
Cc1ccccc1C(=O)Nc1ccc2nc(SCCOc3ccccc3)sc2c1	97.3	-27.4	96.5	83.8
COc1ccc(NC(=O)CCn2c(=O)c3cccn3c3ccccc32)cc1	100.6	2.7	86.1	90.6
CCN(CC)S(=O)(=O)c1ccc2nc(CSc3nnnn3-c3ccc(O)cc3)[nH]c2c1	.	-1.4	95.7	94.5
O=C(O)CNC(=O)c1cc(=O)[nH]c(=O)[nH]1	.	-11.5	93.7	93.6
COc1cc(-c2nc3ccccc3c(=O)n2NC(=O)c2ccc([N+](=O)[O-])c(C)c2)cc(OC)c1OC	102.9	-17.8	.	.
COc1ccc(N2C(=O)/C(=C/c3cc(OC)c(OC)c(OC)c3)C(=O)NC2=S)cc1	107.3	-5.0	.	.
N#C/C(=C\Nc1ccccn1)S(=O)(=O)Cc1ccco1	103.6	-19.5	91.2	87.9
Cc1ccc(S(=O)(=O)CCN2C=CC(C(F)(F)F)=NCC2)cc1	105.7	-48.5	89.1	85.4
O=C(Nc1nccs1)C1CC1(c1ccccc1)c1ccccc1 (stereo not drawn)	103.5	-11.8	93.4	87.2
O=C(CC1N=C2c3ccccc3N=C(SCc3ccccc3F)N2C1=O)NCc1ccc2c(c1)OCO2 (stereo not drawn)	98.7	.	80.8	83.5
O=C1CSC(=O)N1C/C=C/CN1C(=O)CSC1=O	100.6	-3.3	86.9	84.8
CC(C)CC(=O)Nc1cc2nn(-c3ccccc3)nc2cc1Cl	107.7	-0.1	98.1	96.3
Nc1nc(OCC(F)(F)F)cc(-c2ccccc2)n1	.	7.4	125.4	93.2
COC(=O)c1cc2ccc3c(c2oc1=O)CN(Cc1ccco1)CO3	102.6	-146.6	88.3	79.3
O=S(=O)(c1cccc(CSc2nc3ccccc3s2)c1)N1CCOCC1	.	0.9	115.7	89.9
O=c1[nH]nc(-c2cccs2)o1	.	-30.1	114.7	76.8
Cc1c(C(=O)O)oc2c1-c1nn(Cc3ccc(Cl)cc3)cc1CC2	108.6	0.7	97.2	89.0

Further records
SMILES	GIV-Gai inh	HCMV NEC inh	Sa growth 42C	Sa growth 42C second temp
CCC1CCCCN1c1cc(C)nc2nc(-c3ccc(C)cc3)nn12 (stereo not drawn)	102.7	-1.5	.	.
O=C(NCc1cc(F)cc2c1OCOC2)c1ccc(-c2ccccn2)s1	103.2	-32.3	101.0	89.4
O=C(Oc1ccc(-c2nnco2)cc1)C1CC(=O)N(c2ccc3c(c2)OCCO3)C1 (stereo not drawn)	.	-20.6	75.3	90.3
Oc1ccc(Br)cc1/C=N/n1cnnc1	.	-42.2	91.8	80.1
Cc1ccc(CNC(=O)C(Cc2ccccc2)n2cccc2)cc1 (stereo not drawn)	101.3	5.1	98.8	81.7
COc1ccc(C(=O)NCCN=C2NS(=O)(=O)c3ccccc32)cc1	101.5	-31.2	106.8	88.2
Cc1nc2ccccc2c(=O)n1-c1ccc(NC(=O)C(F)(F)F)cc1	92.7	.	79.7	93.3
CC(=O)Nc1ccc(C(=O)NC(=NCc2ccncc2)Nc2ccc3c(c2)OCO3)cc1	102.4	-21.2	.	.
O=C(O)C1CCN(c2cnc3ccccc3n2)CC1	106.5	-23.8	.	.
COc1ccc(-n2c(=O)c3sc4ccccc4c3n(CC(=O)Nc3cccc(C)c3)c2=O)cc1	102.8	-18.1	94.7	89.4
Cc1cccc(C(=O)NC2CCCCC2C)c1 (stereo not drawn)	99.9	-17.0	97.6	96.0
Cc1ccc(NC(=O)CN2C(=O)/C(=C\c3ccccc3)SC2=S)cc1	108.2	.	96.7	99.2
CCOc1cc2sc(N3CCC(C(=O)Nc4ccc(CC)cc4)CC3)nc2cc1Br	96.4	-32.0	95.5	80.5
O=C(Cn1c(=O)n(Cc2ccco2)c(=O)c2ccccc21)Nc1ccc(Cl)cc1Cl	101.7	-11.9	97.1	84.0
CCC(=O)c1ccc(OC(=O)c2c(C)noc2C)cc1	.	-23.6	77.9	84.1
Cn1cc(C(=O)NCc2ccccc2Cl)c(=O)c2cc(S(=O)(=O)N3CCCCCC3)ccc21	102.3	-21.5	100.6	93.5
COc1ccc(Cl)cc1NC(=O)C1=Cc2ccc(C)cc2OC=C1	101.1	-10.4	.	.
Cc1cccn(Cc2c(Cl)cccc2Cl)c1=O	100.2	-13.2	103.4	89.5
CN(C(=O)CSc1cccc[n+]1[O-])C1CCCCC1	.	-9.4	74.4	88.6
Cc1ccc(S(=O)(=O)CCC#N)cc1	.	-26.4	98.6	85.6
Cc1noc(C)c1C(=O)N1CCCC1c1cccc(F)c1 (stereo not drawn)	110.2	-15.1	.	.
COc1cc(CNC2C3CC4CC(C3)CC2C4)ccc1OCc1cccs1 (stereo not drawn)	108.0	.	71.9	90.8
Cc1ccc(N2CC(c3nc(-c4ccc5c(c4)[nH]c(=O)c(=O)n5C(C)C)no3)CC2=O)cc1 (stereo not drawn)	103.4	-11.4	.	.
O=C1c2ccccc2S(=O)(=O)NN1CN1C(=O)c2ccccc2C1=O	.	-50.6	100.2	98.2
CCN(CC)C(=O)CSc1ncnc2c1nnn2Cc1ccc(F)cc1	106.6	.	107.6	95.0

Compound profiles, as listed above. Order of values: GIV-Gai inh	HCMV NEC inh	Sa growth 42C	Sa growth 42C second temp
CCC(=O)c1ccc(OC(=O)c2c(C)noc2C)cc1 as listed: .	-23.6	77.9	84.1
Cn1cc(C(=O)NCc2ccccc2Cl)c(=O)c2cc(S(=O)(=O)N3CCCCCC3)ccc21 as listed: 102.3	-21.5	100.6	93.5
Cc1noc(C)c1C(=O)N1CCCC1c1cccc(F)c1 (stereo not drawn) as listed: 110.2	-15.1	.	.
Oc1ccc(Br)cc1/C=N/n1cnnc1 as listed: .	-42.2	91.8	80.1
O=C(O)C1CCN(c2cnc3ccccc3n2)CC1 as listed: 106.5	-23.8	.	.

More entries:
SMILES	GIV-Gai inh	HCMV NEC inh	Sa growth 42C	Sa growth 42C second temp
O=C(O)CCc1nc2ccc(C(=O)O)cc2[nH]1	100.4	.	81.6	79.2
COC(=O)CSc1nc2ccc(C(C)C)cc2cc1C#N	104.8	-10.2	96.3	95.9
O=C1CCCCC1C1(O)C(=O)Nc2ccc(Br)cc21 (stereo not drawn)	114.1	-3.1	.	.
Cc1ccc(S(=O)(=O)N2C(=O)CCC2c2nc(-c3cccnc3)no2)cc1 (stereo not drawn)	103.4	-4.9	100.0	87.6
O=S(=O)(Nc1ccc(-c2cnco2)cc1)c1ccccc1	106.3	12.3	111.7	107.1
CC(CC(=O)OCc1ccccc1)n1ccnc1 (stereo not drawn)	.	-13.5	116.6	104.1
CCn1nc(C)c2c1c(=O)n(CCc1ccccc1)c(=O)n2Cc1ccccc1C	102.9	-3.6	.	.
CNC(=O)NC(=O)CSc1nnc(SCC(=O)NC(=O)NC)s1	.	0.8	98.8	98.2
CCc1ccc(NC(=O)Cn2cc3c(n2)CCCC3)cc1	104.5	.	103.4	88.3
COc1ccc(C(=O)NCc2ccc3c(c2)CCN3C(=O)c2ccncc2)cc1	100.2	.	128.4	84.7
CCN=C1S/C(=C/c2ccc(-c3ccc(F)cc3)o2)C(=O)N1CC	.	1.5	87.3	84.7
CSc1cccc(NC(=O)COCc2cc(-c3ccc4c(c3)OCO4)on2)c1	98.9	-19.0	100.6	79.5
Cc1cc2nn(-c3ccccc3)nc2cc1NC(=O)COc1ccc(Cl)cc1	112.2	-57.8	97.4	88.4
Cc1ccccc1CN1C(=O)C(O)(CC(=O)c2cccc(Br)c2)c2ccccc21 (stereo not drawn)	106.9	9.6	107.1	93.5
CCOC(=O)C(CC)Sc1ccc2nnc(CCNC(=O)c3ccc(F)cc3)n2n1 (stereo not drawn)	98.0	-43.9	91.5	80.2
CCn1c(CS(=O)(=O)c2cc(C)ccc2C)nc2cc(C(=O)O)ccc21	.	0.3	64.7	85.1
Cc1cc(C)n(CC(=O)NC2CCCC2)c(=O)c1S(=O)(=O)c1ccc(Cl)cc1	104.1	-14.7	.	.
O=C(O)c1cc([N+](=O)[O-])ccc1NCCCc1ccccc1	92.5	-89.2&-135.4&-153.3	.	.
CN1c2ccccc2Sc2cc(N)ccc21	104.0	-25.4	96.7	72.7
CC/C(Cc1ccccc1)=N\NC(=O)c1cc(C)oc1C	.	-8.4	102.9	95.6
Cc1cc(C)n(C(=O)c2scc(-c3ccccc3)c2S(=O)(=O)N(C)c2ccc(F)cc2)n1	104.6	7.1	.	.
Ic1cccc(-c2nc(-c3ccccc3)no2)c1	102.3	-4.7	110.1	101.5
COc1ccc(NC(=O)NC(C)C2CC3CCC2C3)cc1 (stereo not drawn)	104.8	-6.3	110.0	100.5
O=C(CN1C(=O)CC2(CCCC2)C1=O)NC1CCS(=O)(=O)C1 (stereo not drawn)	.	-13.1	69.5	94.1
COCCn1ccc2c(OCC(=O)Nc3ccccc3F)cccc2c1=O	94.5	.	100.5	76.9

5 entries from above, with two lines to a compound.
Results follow in this order: GIV-Gai inh	HCMV NEC inh	Sa growth 42C	Sa growth 42C second temp
> CCOC(=O)C(CC)Sc1ccc2nnc(CCNC(=O)c3ccc(F)cc3)n2n1 (stereo not drawn)
 : 98.0	-43.9	91.5	80.2
> COc1ccc(NC(=O)CCn2c(=O)c3cccn3c3ccccc32)cc1
 : 100.6	2.7	86.1	90.6
> CNC(=O)NC(=O)CSc1nnc(SCC(=O)NC(=O)NC)s1
 : .	0.8	98.8	98.2
> COc1ccc(C(=O)NCc2ccc3c(c2)CCN3C(=O)c2ccncc2)cc1
 : 100.2	.	128.4	84.7
> CCc1cnc2c(c1SCCC(C)C)c(=O)n(C)c(=O)n2C
 : 103.3&99.3	.	123.9	98.1

Next section:
SMILES	GIV-Gai inh	HCMV NEC inh	Sa growth 42C	Sa growth 42C second temp
Cc1ccsc1CN1CCc2nc(Nc3ccccc3)ncc2C1	104.6	.	104.2	85.5
O=C(c1ccc2cnn(Cc3cccc(F)c3)c2c1)N1CCOCC1	102.4	-51.4	.	.
CC(C)(C)c1ccc(S(=O)c2sc3nc4c(cc3c2N)CCCC4)cc1 (stereo not drawn)	97.9	.	102.0	90.1
c1csc(CNc2ncnc3sccc23)c1	.	-14.5	92.3	97.6
Cc1ccc2nc(COc3cccc(NC(=O)c4ccccc4Cl)c3)cc(=O)n2c1	97.5	.	79.5	88.1
COc1cccc(CNC(=O)CCC(=O)N2Cc3cccc(OC)c3Oc3ncccc32)c1OC	93.6&110.2	-9.3	84.2	87.5
Cc1ccc2c(c1)N(CCC(=O)NCc1ccc(F)cc1)C(=O)CO2	108.9	0.2	100.7	100.7
Cc1ccc(NC(=O)CN(C)S(=O)(=O)c2cccc3cccnc23)cc1F	103.3	-9.8	110.9	79.9
CCn1c2ccccc2c2nnc(SCC(=O)NC3CCCC3)nc21	.	-64.8	97.3	84.5
COc1ccc(C2CC(=O)N(c3ccc4c(c3)OCCO4)C(=O)C2)cc1OC	99.0	-1.1	.	.
CC(=O)Nc1cc(-c2ccccc2)nn1Cc1cccc(Cl)c1	111.1	-33.6	82.5	85.0
O=c1c(-c2ccc3ccccc3n2)coc2cc(O)ccc12	.	-19.4	100.9	89.1
Cc1ccc(S(=O)(=O)C2(C(=O)NC(C)c3ccccc3)CC2)cc1 (stereo not drawn)	108.4	-2.8	122.3	91.0
Cc1ccc(NC(=O)N2CCC(C)(C(=O)NCc3ccc4c(c3)OCO4)CC2)c(C)c1	107.2	6.5	.	.
CCOC(=O)c1c(C)[nH]c(C)c1C(=O)COc1ccc(C#N)cc1	.	8.2	89.8	87.1
COc1ccc(C(=O)CSc2nc(=O)n3cc(C)ccc3n2)cc1	108.3	-29.2	107.5	91.1
Cc1ccc(NS(=O)(=O)c2ccccc2)cc1	.	8.7	115.0	115.1
Clc1nc2ccccc2n2cnnc12	93.7	-5.0	102.1	92.5
Cc1cccc(C(=O)Nc2c(-n3cnnc3)nn(C)c2C)c1	98.6	-18.7	.	.
C=COc1ccc(N2C(=O)c3ccccc3OC2C)cc1 (stereo not drawn)	.	-8.2	99.1	97.5
CCN(CC)C(=O)c1cc(-c2ccccc2)on1	106.0	14.1	83.6	72.3
CCCCOC(=O)c1ccc(Nc2nc3ccc(C)cc3n3cnnc23)cc1	98.5	-37.0	103.4	86.2
CN(C)c1ccc(N=Cc2c(O)ccc3ccccc23)cc1	.	-29.1	96.8	75.5
O=c1c2ccccc2c(-c2ccc(F)cc2)nn1-c1cc(Cl)ccc1[N+](=O)[O-]	102.5	11.2	.	.

From PubChem BioAssay
